Assay outcomes (PubChem BioAssay)
Vaccinia stage = Vaccinia orthopox stage-specific inhibition | Vaccinia-infected cells, mCherry/Venus stage reporter fluorescence; hits give low values; some inactives read as strong as hits | activity change (mCherry), % (test concentration not listed) | 89,000 tested, 0.01% active;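 active = mCherry past -33% and 40 or more points under the early reporter, replicates agreeing; inconclusive = past -33% without that gap or agreement; tested in A549 cells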;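 also: scaled between vehicle wells and reference inhibitor wells; 23 nL library stock went into each well; one replicate is shown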
Vaccinia stage Venus = second read-out of Vaccinia stage, no call of its own (marks repeat the call); activity change (Venus), %; measured here: Venus reporter, other viral stage;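 negative = less Venus signal; first of two replicates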
Numbers without * were called inactive; ? = inconclusive; . = no result given. Not all compounds are listed (hit frequency here may not be typical).

molecule | Vaccinia stage | Vaccinia stage Venus
C[C@@H]1CN([C@H](C)CO)C(=O)c2cccc(NS(C)(=O)=O)c2O[C@@H]1CN(C)S(=O)(=O)c1ccccc1 | 6 | -4
C[C@H](CO)N1C[C@H](C)[C@@H](CN(C)Cc2ccc(Cl)c(Cl)c2)Oc2c(NC(=O)c3nc4ccccc4s3)cccc2C1=O | -13 | -12
C[C@@H]1CN([C@@H](C)CO)S(=O)(=O)c2ccc(C#Cc3cccc(F)c3)cc2O[C@H]1CN(C)C(=O)CN1CCOCC1 | -28 | -17
C[C@@H]1CN([C@@H](C)CO)C(=O)c2cc(NS(C)(=O)=O)ccc2O[C@@H](C)CCCCO[C@@H]1CN(C)C(=O)Nc1ccc2c(c1)OCO2 | 48 | 15
CCS(=O)(=O)N(C)C[C@H]1[C@@H](c2ccccc2)[C@@H](CO)N1C(=O)CN(C)C | 0 | 2
CCCN1[C@@H]2c3ccc(C4=CCCC4)c(=O)n3C[C@@H]2[C@@H](CO)[C@@H]1C(=O)NCCCN(C)C | 17 | 2
Cc1noc(C)c1NC(=O)N(C)C[C@H]1Oc2c(NC(=O)CCCCCC(=O)Nc3ccccc3N)cccc2C(=O)N([C@H](C)CO)C[C@@H]1C | 18 | -1
O=C(c1ccccc1F)N1CC(=O)N2[C@H](CO)[C@H](c3ccc(C#Cc4ccccc4)cc3)[C@@H]2C1 | -27 | -18
CN1[C@@H]2c3ccc(-c4ccccc4)c(=O)n3C[C@@H]2[C@@H](CO)[C@@H]1C(=O)N1CCc2ccccc2C1 | -29 | -8
COc1ccc(C(=O)Nc2ccc3c(c2)OC[C@H](C)NC[C@@H](C)[C@@H](OC)CN(C)C3=O)cc1 | -13 | -4
O=C(C[C@@H]1C[C@@H]2c3cc(NC(=O)C4CCOCC4)ccc3O[C@@H]2[C@@H](CO)O1)NCc1ccc(Oc2ccccc2)cc1 | -7 | 10
O=C(NC1CCC1)[C@@H]1[C@@H](CO)[C@@H]2Cn3c(cccc3=O)[C@@H]2N1CCc1ccccc1 | 13 | -1
C[C@@H](NC(=O)C[C@@H]1CC[C@@H](NC(=O)c2cccnc2)[C@H](CO)O1)c1ccccc1 | 0 | 2
N#Cc1cccc(-c2ccc3c(c2)[C@@H]2[C@@H](CCN2S(=O)(=O)c2ccc(F)cc2)[C@H](CO)N3)c1 | ? | .
C[C@H](CO)N1C[C@H](C)[C@@H](CN(C)Cc2ccncc2)Oc2ccc(NC(=O)Nc3ccccc3)cc2CC1=O | 5 | 1
C[C@@H]1CCCCO[C@H](CN(C)S(=O)(=O)c2cn(C)cn2)[C@H](C)CN([C@@H](C)CO)C(=O)c2cc(N(C)C)ccc2O1 | 7 | 4
Cc1ccc(S(=O)(=O)Nc2ccc3c(c2)C(=O)N([C@H](C)CO)C[C@H](C)[C@@H](CN(C)Cc2ccc(C(F)(F)F)cc2)OCCCC[C@H](C)O3)cc1 | ? | .
COCC(=O)N1[C@H](C#N)[C@H](c2ccc(C3=CCCC3)cc2)[C@H]1CO | 0 | -3
Cc1noc(C)c1NC(=O)Nc1ccc2c(c1)C(=O)N([C@H](C)CO)C[C@H](C)[C@@H](CN(C)C(=O)CCCN(C)C)OCCCC[C@@H](C)O2 | 29 | 13
C[C@H](CO)N1C[C@H](C)[C@@H](CN(C)C(=O)Cc2ccccc2)Oc2cc(-c3cncnc3)ccc2S1(=O)=O | 8 | 6
O=C(N[C@H]1CC[C@H](CCNS(=O)(=O)c2ccccc2)O[C@@H]1CO)c1cccc(F)c1 | -2 | -2
C[C@@H]1CN([C@@H](C)CO)S(=O)(=O)c2ccc(C#CC(C)(C)O)cc2O[C@H]1CN(C)CC1CC1 | -3 | -9
CNC[C@H]1Oc2ccc(NC(=O)CCCN(C)C)cc2C(=O)N([C@H](C)CO)C[C@@H]1C | 19 | 21
C[C@@H]1CN([C@@H](C)CO)C(=O)c2cc(NC(=O)CCCN(C)C)ccc2O[C@@H](C)CCCCO[C@@H]1CN(C)S(C)(=O)=O | 20 | 13
C[C@H]1CN([C@@H](C)CO)S(=O)(=O)c2ccc(C3=CCCC3)cc2O[C@@H]1CN(C)Cc1ccccc1 | ? | .
CCCN1[C@@H]2Cn3c(ccc(-c4ccc(F)cc4)c3=O)[C@H]1[C@@H](C(=O)NCCOC)[C@@H]2CO | -2 | 3
CC(C)NC(=O)Nc1ccc2c(c1)C(=O)N([C@H](C)CO)C[C@@H](C)[C@H](CN(C)Cc1ccc3c(c1)OCO3)O2 | 18 | 14
C[C@@H]1CN([C@H](C)CO)C(=O)c2cc(Br)cnc2O[C@@H]1CN(C)Cc1ccc2c(c1)OCO2 | 7 | 7
CN(C)CCCNC(=O)C[C@H]1CC[C@@H]2[C@H](COc3ccc(NC(=O)c4ccccc4F)cc3C(=O)N2C)O1 | 9 | 6
COc1ccc(NC(=O)N(C)C[C@@H]2Oc3ccc(NC(=O)c4ccncc4)cc3C(=O)N([C@@H](C)CO)C[C@@H]2C)cc1 | -2 | -4
C[C@@H]1CN([C@@H](C)CO)S(=O)(=O)c2ccc(Br)cc2O[C@@H]1CN(C)C(=O)CC1CC1 | 4 | 9
C[C@H]1CN([C@@H](C)CO)C(=O)Cc2cc(NC(=O)Nc3ccc(C(F)(F)F)cc3)ccc2O[C@H]1CN(C)C(=O)Nc1ccccc1 | -26 | -13
C[C@@H]1CCCCO[C@@H](CN(C)S(=O)(=O)c2cccs2)[C@H](C)CN([C@@H](C)CO)C(=O)c2cc(N(C)C)ccc2O1 | -14 | -12
O=C(C[C@@H]1C[C@@H]2c3cc(NS(=O)(=O)c4ccc(F)cc4)ccc3O[C@@H]2[C@@H](CO)O1)N1CCOCC1 | 21 | 10
C[C@H]1CCCCO[C@@H](CN(C)C)[C@@H](C)CN([C@@H](C)CO)C(=O)c2cc(NS(=O)(=O)c3cccs3)ccc2O1 | 4 | -4
CCCNC(=O)c1cc2c(c(-c3cccc(-c4cc5ccccc5o4)c3)n1)[C@H](CCO)N(C(=O)NC(C)C)C2 | -28 | -15
C[C@H](CO)N1C[C@H](C)[C@@H](CN(C)Cc2ccc(C(=O)Nc3ccccc3N)cc2)Oc2ccc(NS(C)(=O)=O)cc2CC1=O | 5 | 11
Cn1cnc(S(=O)(=O)N2CCCCN3[C@@H](CO)[C@H](c4ccc(-c5ccccc5)cc4)[C@@H]3C2)c1 | -7 | -10
COc1ccc(CN(C)C[C@H]2Oc3c(NS(=O)(=O)c4cccs4)cccc3C(=O)N([C@@H](C)CO)C[C@H]2C)cc1 | 19 | 17
O=S(=O)(NC[C@@H]1[C@H](c2ccccc2)[C@@H](CO)N1CC1CC1)c1ccccc1 | 5 | 10
COCc1cn(CC[C@@H]2CC[C@@H](NC(=O)Nc3ccc(C(F)(F)F)cc3)[C@H](CO)O2)nn1 | 14 | 7
C[C@H](CO)N1C[C@H](C)[C@H](CN(C)C(=O)Nc2ccccc2)Oc2ccc(NS(C)(=O)=O)cc2CC1=O | 25 | 10
CCNC(=O)C[C@H]1C=C[C@H](NC(=O)C2CCOCC2)[C@H](CO)O1 | 9 | 11
COc1ccc(C#Cc2ccc3c(c2)[C@]2(C(=O)N3)[C@H](c3ccc(OCCO)cc3)N3[C@H](c4ccccc4)[C@H](c4ccccc4)OC(=O)[C@H]3[C@@H]2C(=O)NC[C@H](O)c2ccccc2)cc1 | -9 | -3
COc1cccc(S(=O)(=O)N[C@H]2CC[C@H](CCn3cc(-c4ccccc4OC)nn3)O[C@H]2CO)c1 | -5 | 2
C[C@@H]1CN([C@@H](C)CO)C(=O)c2cc(/C=C/c3ccccc3)cnc2O[C@@H]1CN(C)C(=O)CN1CCOCC1 | 6 | 5
O=C(Nc1ccc2c(c1)[C@@H]1C[C@H](CC(=O)N3CCc4ccccc4C3)O[C@H](CO)[C@@H]1O2)NC1CCCC1 | -2 | 2
COCC(=O)N(C)C[C@@H]1Oc2cc(-c3ccccc3F)ccc2S(=O)(=O)N([C@@H](C)CO)C[C@@H]1C | 0 | 0
C[C@@H]1CN([C@H](C)CO)S(=O)(=O)c2ccc(C#Cc3ccccc3)cc2O[C@@H]1CN(C)C(=O)Nc1ccccc1 | -5 | -10
C[C@@H]1CN([C@H](C)CO)C(=O)Cc2cc(NC(=O)Nc3ccc(C(F)(F)F)cc3)ccc2O[C@H]1CN(C)Cc1ccc(C(=O)O)cc1 | 8 | 2
O=C(C[C@@H]1CC[C@H]2[C@@H](COC[C@@H](O)CN2Cc2ccc(F)cc2)O1)NCc1ccccc1Cl | -15 | -10
Cc1ccc(S(=O)(=O)N[C@H]2CC[C@H](CCNC(=O)C3CCCC3)O[C@@H]2CO)cc1 | -6 | 6
CC(C)NC(=O)N(C)C[C@@H]1Oc2ncc(C#CC(C)(C)O)cc2C(=O)N([C@H](C)CO)C[C@@H]1C | 18 | 9
Cc1noc(C)c1S(=O)(=O)Nc1ccc2c(c1)C(=O)N([C@H](C)CO)C[C@@H](C)[C@@H](CN(C)C(=O)CCC(F)(F)F)OCCCC[C@H](C)O2 | 6 | 7
Cc1ccccc1-c1ccc([C@H]2[C@H]3CN(C(=O)c4ccccc4)CC(=O)N3[C@H]2CO)cc1 | -20 | -16
CCC(=O)N[C@@H]1CC[C@H](CCn2cc(C3CC3)nn2)O[C@H]1CO | 7 | 4
O=C(N[C@H]1CC[C@@H](CCn2cc(C3(O)CCCC3)nn2)O[C@H]1CO)c1ccccc1F | -9 | -7
COCCNC(=O)C[C@@H]1CC[C@@H](NS(=O)(=O)c2ccc(C)cc2)[C@H](CO)O1 | 12 | 5
C[C@H](CO)N1C[C@H](C)[C@H](CN(C)C(=O)Nc2ccc3c(c2)OCO3)OCCCC[C@H](C)Oc2ccc(NC(=O)C3CCCCC3)cc2C1=O | -23 | -12
C[C@@H]1CN([C@H](C)CO)C(=O)c2cccc(NC(=O)c3ccc(-c4nccs4)cc3)c2O[C@H]1CN(C)Cc1ccc(C(=O)O)cc1 | 16 | 7

Compound profiles, as listed above. Values in the order: Vaccinia stage | Vaccinia stage Venus
Results for `C[C@@H]1CN([C@H](C)CO)S(=O)(=O)c2ccc(C#Cc3ccccc3)cc2O[C@@H]1CN(C)C(=O)Nc1ccccc1` → -5 | -10
Results for `CC(C)NC(=O)N(C)C[C@@H]1Oc2ncc(C#CC(C)(C)O)cc2C(=O)N([C@H](C)CO)C[C@@H]1C` → 18 | 9

(further entries)
molecule | Vaccinia stage | Vaccinia stage Venus
CCCNC(=O)N(C)C[C@@H]1Oc2cc(-c3cncnc3)ccc2S(=O)(=O)N([C@@H](C)CO)C[C@H]1C | 15 | -2
CN1c2ccc(-c3ccccc3)cc2[C@H]2[C@H](CCN2C(=O)Cc2ccccc2)[C@@H]1CO | -3 | 4
COCC(=O)N1CCCCN2[C@@H](CO)[C@H](c3ccc(-c4ccccc4)cc3)[C@@H]2C1 | 32 | 3
O=C(NCC[C@@H]1CC[C@@H](NC(=O)c2ccncc2)[C@H](CO)O1)Nc1ccc(Cl)cc1 | 12 | 9
COCC(=O)Nc1ccc2c(c1)C(=O)N(C)C[C@H](OC)[C@H](C)CN(CCC(F)(F)F)[C@H](C)CO2 | 10 | 3
CN(C)C(=O)c1ccc(-c2ccc3c(c2)[C@@H]2[C@@H](CCN2C(=O)Cc2ccccn2)[C@H](CO)N3C)cc1 | 2 | -5
C[C@@H]1CN([C@@H](C)CO)C(=O)Cc2cc(NS(=O)(=O)c3ccc(Cl)cc3)ccc2O[C@H]1CN(C)C(=O)Nc1cccc2ccccc12 | 3 | -2
C[C@H]1CN([C@@H](C)CO)C(=O)Cc2cc(NC(=O)CCCN(C)C)ccc2O[C@H]1CN(C)S(=O)(=O)c1ccccc1 | -1 | -2
CC(C)NC(=O)N(C)C[C@@H]1OCCCC[C@@H](C)Oc2ccc(NS(=O)(=O)c3cn(C)cn3)cc2C(=O)N([C@H](C)CO)C[C@H]1C | 21 | 9
C[C@H]1CN([C@@H](C)CO)C(=O)c2cc(NC(=O)CCCN(C)C)ccc2O[C@H]1CN(C)C(=O)Nc1ccc(F)cc1 | 12 | 3
CNC[C@H]1Oc2cc(C#CC(C)(C)O)ccc2S(=O)(=O)N([C@H](C)CO)C[C@@H]1C | 3 | -1
C[C@@H]1CN([C@@H](C)CO)C(=O)c2cccc(NC(=O)c3ccncc3)c2O[C@@H]1CN(C)S(=O)(=O)c1cccs1 | -1 | 4
C[C@@H]1CN([C@H](C)CO)C(=O)c2cccc(NC(=O)C3CCOCC3)c2O[C@H]1CN(C)S(=O)(=O)c1cccs1 | 20 | 13
COc1cccc(S(=O)(=O)N[C@H]2CC[C@@H](CC(=O)NCc3ccccc3)O[C@H]2CO)c1 | -7 | -8
CS(=O)(=O)N1[C@H](C#N)[C@H](c2ccc(C#CC3CCCCC3)cc2)[C@@H]1CO | 11 | 0

Five entries from above, sorted by length of the SMILES, lowest first:
molecule | Vaccinia stage | Vaccinia stage Venus
COCC(=O)N1CCCCN2[C@@H](CO)[C@H](c3ccc(-c4ccccc4)cc3)[C@@H]2C1 | 32 | 3
CN1c2ccc(-c3ccccc3)cc2[C@H]2[C@H](CCN2C(=O)Cc2ccccc2)[C@@H]1CO | -3 | 4
O=C(NCC[C@@H]1CC[C@@H](NC(=O)c2ccncc2)[C@H](CO)O1)Nc1ccc(Cl)cc1 | 12 | 9
COCC(=O)Nc1ccc2c(c1)C(=O)N(C)C[C@H](OC)[C@H](C)CN(CCC(F)(F)F)[C@H](C)CO2 | 10 | 3
C[C@@H]1CN([C@@H](C)CO)C(=O)c2cccc(NC(=O)c3ccncc3)c2O[C@@H]1CN(C)S(=O)(=O)c1cccs1 | -1 | 4
